# Screening data from PubChem BioAssay.
# Rce1 inhib: yeast Rce1p protease inhibitors, primary screen, biochemical, fluorescence, cell-free homogeneous. CAAX prenyl protease 2 (Saccharomyces cerevisiae (strain ATCC 204508 / S288c)), Q03530. yeast membranes, quenched prenylated peptide cleavage fluorescence. calls only. 0.27% of 290,000 active;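 active = fall in fluorescence gain of 50% or more versus controls, with final raw signal at or below 3038400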;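 note: plate controls were neutral control wells for no effect and wells lacking membranes for full effect; tested at 10 µM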
# Target sequence (Q03530 whole entry, looked up): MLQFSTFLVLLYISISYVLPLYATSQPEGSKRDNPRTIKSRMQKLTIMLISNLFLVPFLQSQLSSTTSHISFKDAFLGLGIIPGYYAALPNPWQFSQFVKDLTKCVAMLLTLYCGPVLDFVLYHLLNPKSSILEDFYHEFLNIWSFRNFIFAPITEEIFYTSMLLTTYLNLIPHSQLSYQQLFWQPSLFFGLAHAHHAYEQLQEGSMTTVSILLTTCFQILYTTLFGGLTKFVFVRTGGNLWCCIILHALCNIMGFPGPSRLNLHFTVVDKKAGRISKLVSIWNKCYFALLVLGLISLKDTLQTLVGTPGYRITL
# MT1-MMP act inh: blockers of MT1-MMP proenzyme processing, primary screen, HT1080 RFP-PRO-GFP cells, GFP/RFP fluorescence. GFP/RFP ratio fluorescence, overnight; percent of plate control window, DMSO zero. Matrix metalloproteinase-14 (Homo sapiens), P50281. 0.061% of 360,000 active. GFP/RFP ratio change, % at 20 µM;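 active = GFP/RFP ratio change of at least 30% with cell ATP level not reduced by more than half and red fluorescence within 50% of control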; note: strong numbers were not always called active
#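 Assay system: HT1080 cells carrying an RFP-PRO-GFP reporter | Dosing: Single dose of 20 µM compound, 1% DMSO final | Incubation: Cells overnight before dosing, compound overnight, 37 °C, 5% CO2 | Evaluation: GFP/RFP fluorescence ratio | Control set: DMSO and RFP-L50D-GFP cell wells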
# eIF4H inh: human eIF4H binding inhibitors, primary screen, translation initiation inhibitor project, biochemical, uHTS, fluorescence polarization | Eukaryotic translation initiation factor 4H (Homo sapiens), Q15056 | eIF4H fluorescence polarization binding assay | inhibition, % at 35 µM | 0.94% of 290,000 active | AID 2012, 2009;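 active = 50% or more with normal probe brightness, or confirmed in later tests; about a fifth of its hits are not listed in these tables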;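 note: calls also rest on retests at 20 µM and on dose response follow-up; 0% = protein and probe with vehicle and 100% = probe without protein; strong numbers were not always called active; many hits fall short of the cut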
# HIV Env fusion: inhibitors of HIV-1 Env-driven cell-cell fusion, primary screen, HeLa-JRFL effector, CEM21 target cells, luciferase. inhibition, % at 12.3 µM. 1.1% of 360,000 active. AID 651610, 2012;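 active = mean replicate inhibition score of at least 50 and every replicate individually at or above 50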;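 note: 0% = plate neutral controls and 100% = maraviroc near 300 nM; one replicate is shown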
# PABP FP inh: PABP poly(A) RNA binding inhibitors, primary screen, biochemical, fluorescence polarization, uHTS. inhibition, % at 35 µM. AID 2014, 2009. 1% of 290,000 active. Polyadenylate-binding protein 1 (Homo sapiens), P11940;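 active = 50% or more with normal probe brightness, or confirmed in later tests; about a fifth of its hits are not listed in these tables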;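 note: calls also rest on retests at 20 µM and on dose response follow-up; controls were probe without protein and protein plus probe with vehicle; some compounds called inactive have numbers as strong as hits; many hits fall short of the cut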
# Target sequence (P11940 whole entry, looked up): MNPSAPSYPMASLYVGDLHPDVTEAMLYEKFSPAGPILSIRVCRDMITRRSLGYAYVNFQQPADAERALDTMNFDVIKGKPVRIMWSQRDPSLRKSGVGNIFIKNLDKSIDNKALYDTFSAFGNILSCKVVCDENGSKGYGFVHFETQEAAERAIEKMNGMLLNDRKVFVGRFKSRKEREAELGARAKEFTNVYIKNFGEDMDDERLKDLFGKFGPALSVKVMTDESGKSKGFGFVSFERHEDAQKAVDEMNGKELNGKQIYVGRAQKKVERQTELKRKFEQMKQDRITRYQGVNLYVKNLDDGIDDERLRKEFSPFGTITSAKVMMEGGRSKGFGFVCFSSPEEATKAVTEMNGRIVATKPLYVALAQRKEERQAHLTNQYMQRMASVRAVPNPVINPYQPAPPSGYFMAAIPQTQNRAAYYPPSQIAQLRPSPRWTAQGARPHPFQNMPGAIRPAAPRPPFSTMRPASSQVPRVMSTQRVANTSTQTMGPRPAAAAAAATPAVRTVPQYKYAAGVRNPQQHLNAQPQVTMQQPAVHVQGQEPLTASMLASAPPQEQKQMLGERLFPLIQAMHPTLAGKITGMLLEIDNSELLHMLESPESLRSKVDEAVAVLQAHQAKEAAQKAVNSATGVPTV
# UUG fidelity: modulators of yeast start codon fidelity, primary screen, whole organism, S. cerevisiae, single point, plate reader | 0.13% of 350,000 active | activity score, % at 18.7 µM | S. cerevisiae UUG-firefly luciferase reporter, luminescence/redox ratio;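 active = replicate mean at a twofold rise or more, about +100% in these data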;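 note: firefly luciferase made from a UUG start codon reports start codon fidelity; reporter light over untreated wells divided by growth signal over untreated wells; some hits fall short of that in this replicate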
# CSC inhib: cancer stem cell viability inhibitors, primary screen, luminescence. cancer stem cell-like cells viability. inhibition, % at 7.5 µM. AID 2717, 2010. 1.1% of 300,000 active;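 active = mean at 75% or more and at least half the replicates too; tested in HMLE shEcad cells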;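 note: 0% = median of negative and 100% = median of positive control wells; the first replicate is given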
# MT1-MMP act inh RFP: recorded beside MT1-MMP act inh, whose call it bears; RFP signal change, %; measured here: RFP expression control read;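 0 = vehicle wells; hits needed this value within 50% of zero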
# An asterisk follows results filed as active; i = inactive; · = no result given.
SMILES,Rce1 inhib,MT1-MMP act inh,MT1-MMP act inh RFP,eIF4H inh,HIV Env fusion,PABP FP inh,UUG fidelity,CSC inhib
CN1CCN(S(=O)(=O)c2cccc(C(=O)NC3CCCC3)c2)CC1,i,1.1,0.6,·,8.4,·,6.8,-11.4
CCOC(=O)N1CCN(C(=O)Nc2ccc(Cl)cc2Cl)CC1,i,9.2,3.2,-6.9,-14.2,4.4,-7.8,·
CCN(CC(=O)Nc1c(F)cccc1F)C(=O)C1CCCO1 (stereo unspecified),·,1.8,6.0,·,8.9,·,-0.9,·
CCOc1cc(/C=C2\SC(N3CCCC(C)C3)=NC2=O)ccc1O (stereo unspecified),i,-32.8,-4.9,1.3,-11.8,-14.7,-6.1,7.8
O=C(CN(Cc1ccc(F)cc1)C(=O)C1CSC(=O)C1)NC1CCCCC1 (stereo unspecified),i,3.3,1.6,-5.5,26.3,-14.6,26.0,-7.5
O=C(COC(=O)c1ccccc1C(=O)c1ccccc1)c1ccco1,i,-1.8,1.8,-1.3,8.4,6.2,1.6,-0.1
COc1ccc(S(=O)(=O)NCCC(C)C)cc1C,i,-1.0,-2.5,-12.0,13.1,-2.2,·,-10.4
Cc1cc2oc(C(=O)N(Cc3ccc(N(C)C)cc3)CC3CCCO3)c(C)c2cc1C (stereo unspecified),i,-6.6,-3.0,-8.0,34.8,5.8,16.6,39.0
CC(=O)c1cccc(-n2nnnc2SCC(=O)Nc2cc(C)on2)c1,i,1.2,0.0,1.1,2.4,-2.3,-20.3,·
O=C(COC(=O)c1ccc2ncsc2c1)Nc1ccc(OC(F)(F)F)cc1,·,-0.3,-0.8,·,·,·,-40.5,7.9
CCOC(=O)c1ccc(NC(=O)[C@@H](NC(N)=O)C(C)C)cc1,i,2.4,4.9,10.4,8.4,3.0,-1.2,-9.4
CC(C)(C)c1ccc(OC(=O)N2CCOCC2)cc1,i,3.5,-2.5,-1.0,-30.4,4.6,-1.5,-7.2
CC(CC(=O)NCc1ccco1)S(=O)(=O)c1ccc2c(c1)CCN2C(=O)C1CC1 (stereo unspecified),i,-3.9,-1.0,-3.5,-10.5,6.6,-4.2,-2.8
Cc1cccc(C(=O)NCc2nnc3c4ccccc4c(-c4ccccc4)nn23)c1,·,8.9,1.5,-9.4,4.6,-14.9,·,27.3
CCN(Cc1cnn(C)c1)C(=O)c1ccc2nc(Cc3ccccc3F)oc2c1,·,4.1,-3.0,·,-7.9,·,-27.3,·
CN1c2ccsc2/C(=N/NC(=O)c2c(F)cccc2F)CS1(=O)=O,i,-9.6,0.9,-0.2,-41.1,0.2,-6.7,-5.2
Cc1scc(C(=O)NNC(=S)NCC(C)C)c1C,i,2.6,-0.1,-2.8,-3.0,-0.3,·,·
CCN(CC)C(=O)CSc1nnc2cc(C)c3ccccc3n12,·,2.7,3.6,-5.1,-7.3,12.7,·,-9.4
N#C/C(=C\c1ccc(Sc2nc3ccccc3[nH]2)o1)c1ccccc1,i,-4.8,-30.4,-8.1,·,-2.0,-14.3,46.9
Cc1ccc2nc(-c3ccncc3)cc(C(=O)Nc3ccncc3)c2c1,i,-1.7,1.4,5.3,-57.9,2.0,-15.8,-8.0
Cc1onc(-c2ccccc2)c1C(=O)OCCOc1ccc([N+](=O)[O-])cc1[N+](=O)[O-],i,2.7,-27.1,-15.5,27.2,-3.5,-23.1,6.0
CCOC(=O)Cc1c[nH]c(=S)[nH]c1=O,i,1.1,1.5,-3.1,-6.5,1.7,·,5.0
Cc1ccc(S(=O)(=O)c2cnc(-c3ccccc3)nc2N2CCCCC2)cc1,i,-9.6,-9.6,-13.3,15.7,-14.6,·,15.7
C=CCn1c(SCC(=O)Nc2sc3c(c2C#N)CCC3)nnc1C1COc2ccccc2O1 (stereo unspecified),i,-1.2,1.2,17.6,·,4.6,-13.2,-18.4
CCOc1ccccc1N(C(=O)CNC(=O)c1ccco1)C(C(=O)NC1CCCC1)c1ccncc1 (stereo unspecified),i,-2.5,2.1,-5.7,7.9,8.3,·,-1.8

# New compounds follow:
SMILES,Rce1 inhib,MT1-MMP act inh,MT1-MMP act inh RFP,eIF4H inh,HIV Env fusion,PABP FP inh,UUG fidelity,CSC inhib
CCOc1ccc(N(CC(=O)NCc2ccc(OC)cc2)C(=O)CCC(=O)Nc2nccs2)cc1,i,-2.0,-4.7,6.1,10.3,-0.9,1.4,6.3
CC(=O)N(c1ccccc1C)c1ccccc1C,·,-0.9,7.4,·,16.5,·,-6.7,·
CCCOc1cccc(C(=O)Nc2ccc(Br)cc2F)c1,i,4.6,0.6,6.7,·,2.8,-12.9,0.8
O=C(Cn1ncc2c1-c1ccccc1OC2)N1CCN(c2ccccn2)CC1,i,5.2,1.7,-8.2,-15.5,-20.4,-15.3,-13.9
CCOC(=O)N1CCN(C(=O)c2cccc(F)c2)CC1,·,0.3,5.7,-3.3,1.5,5.0,·,-4.7
CC1=NN(c2ccc(Br)cc2)C(=O)/C1=C/c1cccs1,i,-1.0,2.3,2.1,·,3.0,·,·
CCOC(=O)C(C)Sc1snnc1C (stereo unspecified),i,-3.4,-0.1,·,3.6,·,-6.0,19.2
CCOc1cc(/C=C/C(=O)O)ccc1OCc1ccccc1,i,4.4,1.7,-3.5,4.1,-9.3,-9.8,-26.3
CC(NC(=O)C(=O)c1cn(CC(=O)N2CCOCC2)c2ccccc12)c1ccccc1 (stereo unspecified),i,2.3,2.5,-10.2,-1.6,-2.4,1.6,4.9
Cc1cc(OCC(=O)O/N=C(\N)c2ccccc2)ccc1Cl,·,1.3,0.4,-12.3,-8.1,-10.7,·,8.5
COc1ccc(S(=O)(=O)N2CCOCC2)cc1NC(=O)COC(=O)C1CCC1,·,6.0,5.0,·,-18.0,·,-17.3,·
Nc1ccn([C@@H]2O[C@H](C(=O)N3CCN(c4ccc(Cl)cn4)CC3)[C@@H](O)[C@H]2O)c(=O)n1,·,5.3,2.5,·,6.3,·,-11.8,·
CCC(C)N=Cc1c(Nc2ccccc2)nc2c(C)cccn2c1=O (stereo unspecified),i,-4.5,-2.3,2.5,1.2,3.0,-7.1,10.4
CC1(C)Cc2cccc(C(=O)Nc3ccc(F)cc3F)c2O1,i,-1.4,-3.6,-4.5,-1.2,-11.4,·,-0.9
COC(=O)c1ccc(N2CCOCC2)c(NC(=O)c2cccs2)c1,i,-6.8,-2.6,-2.4,-249.0,-2.2,-13.1,1.5
COc1cccc(OCC(=O)Nc2ccncc2)c1,i,2.5,-11.7,-5.4,-7.2,-5.7,3.1,-22.2
CCN(CC)CCNC(=O)C(=O)Nc1ccc2c(c1)N(S(=O)(=O)c1cccs1)CCC2,i,3.4,5.5,·,-9.1,·,-11.6,1.2
Cn1c(SCC(=O)NC2CCCC2)nnc1-c1cccs1,i,4.4,6.0,-6.1,4.3,-5.4,-16.4,-9.1
CCC(CC)C(=O)N(C)c1c(C)nc2c(OCc3ccc(F)c(F)c3)cccn12,·,0.1,-5.2,·,10.6,·,-12.9,·
Cc1ccc(N2CCN(S(=O)(=O)c3nnc(NC(=O)c4ccco4)s3)CC2)cc1,i,-1.9,2.6,10.2,-42.8,24.7,-6.8,3.7
COc1ccc(-c2nn(-c3ccccc3)cc2C(=O)N(C)CC(=O)Nc2cccc(F)c2)cc1,·,2.0,0.7,·,·,·,11.3,79.6*
COc1ccc(Cn2c(SCC#N)nc3ccc(N4CCOCC4)cc3c2=O)cc1,i,-5.6,-8.1,6.8,-5.9,9.5,·,53.7
COc1ccc(NC(=O)c2cc(C)no2)cc1OC,i,6.4,5.0,-2.1,12.6,10.2,·,-16.6
O=C(COc1ccc2c3c(c(=O)oc2c1)CCCC3)NC(Cc1ccc(Cl)cc1)C(=O)O (stereo unspecified),i,-2.7,5.1,-9.4,·,19.1,-14.9,-19.5
COc1ccc(-c2cc(C(=O)N3CCN(c4ccccc4)CC3)c3ccccc3n2)cc1OC,i,0.3,-3.5,-2.0,·,-0.8,40.7,-1.5

# Continuation.
SMILES,Rce1 inhib,MT1-MMP act inh,MT1-MMP act inh RFP,eIF4H inh,HIV Env fusion,PABP FP inh,UUG fidelity,CSC inhib
COc1ccc(NC(=O)C2CCN(S(=O)(=O)c3cccc4nonc34)CC2)c(OC)c1,i,-2.7,-2.2,-8.0,6.8,-8.2,-21.0,-16.5
CC1(Cc2ccc(C(F)(F)F)o2)C(=O)Nc2cc(-c3ccc(F)cc3F)ccc21 (stereo unspecified),·,-4.0,-14.8,·,61.8*,·,-11.5,·
COCCOC(=O)C1=C(C)NC(=O)NC1c1cccc(F)c1 (stereo unspecified),i,0.2,-2.6,-14.9,16.0,-3.4,-14.4,13.7
CC(C)c1cccc(C(C)C)c1NC(=O)CN1C(=O)NC2(CCCCCCC2)C1=O,·,3.5,1.5,·,-3.3,·,-5.9,-8.8
Cc1nonc1C(=O)N/N=C/c1ccc(O)cc1,i,1.4,3.3,-5.3,1.6,-0.1,-56.6,·
CCOC(=O)Cc1[nH]nc2c1C(c1cc(OC)ccc1OC)C(C#N)=C(N)O2 (stereo unspecified),i,-5.3,2.6,22.2,·,-5.4,-4.7,·
Cc1ccc(C(=O)O)cc1NC(=S)NC(=O)c1ccc([N+](=O)[O-])c(C)c1,i,1.9,0.0,9.1,2.4,-9.5,·,11.7
COC(=O)C(C(=O)OC)C(C[N+](=O)[O-])c1ccc(O)c(OC)c1 (stereo unspecified),i,-3.2,-5.3,-1.3,·,-2.2,·,·
O=C(COC(=O)c1c[nH]c(=O)[nH]c1=O)Nc1ccccc1F,i,1.2,1.9,-7.1,0.8,6.5,·,8.7
COc1ccccc1Nc1nc2ccccc2n1C,i,-3.9,1.9,8.4,-77.1,-8.6,1.9,-6.3
N#C/C(=C\c1c(N2CCC(C(N)=O)CC2)nc2ccccn2c1=O)C(=O)NC1CCCCC1,i,0.3,2.2,2.5,2.5,-1.4,14.2,6.0
C[C@@]12C(=O)Nc3ccc(F)cc3C(=O)N1[C@H]1c3ccccc3OC[C@@H]1[C@@H]2c1ccccc1,·,-8.2,-3.6,·,·,·,3.9,21.2
O=C(CN1CCC(NC(=O)Nc2ccccc2)CC1)Nc1ccccc1F,·,-0.1,-0.6,4.1,0.1,-9.9,-13.0,-15.5
Cn1nnnc1Sc1c(Cl)cccc1[N+](=O)[O-],i,2.4,5.2,2.1,6.4,18.6,-28.3,-11.2

# Six entries drawn at random from those above, as already listed:
SMILES,Rce1 inhib,MT1-MMP act inh,MT1-MMP act inh RFP,eIF4H inh,HIV Env fusion,PABP FP inh,UUG fidelity,CSC inhib
O=C(CN(Cc1ccc(F)cc1)C(=O)C1CSC(=O)C1)NC1CCCCC1 (stereo unspecified),i,3.3,1.6,-5.5,26.3,-14.6,26.0,-7.5
CC1=NN(c2ccc(Br)cc2)C(=O)/C1=C/c1cccs1,i,-1.0,2.3,2.1,·,3.0,·,·
CC1(C)Cc2cccc(C(=O)Nc3ccc(F)cc3F)c2O1,i,-1.4,-3.6,-4.5,-1.2,-11.4,·,-0.9
COc1ccc(-c2cc(C(=O)N3CCN(c4ccccc4)CC3)c3ccccc3n2)cc1OC,i,0.3,-3.5,-2.0,·,-0.8,40.7,-1.5
COCCOC(=O)C1=C(C)NC(=O)NC1c1cccc(F)c1 (stereo unspecified),i,0.2,-2.6,-14.9,16.0,-3.4,-14.4,13.7
CCN(Cc1cnn(C)c1)C(=O)c1ccc2nc(Cc3ccccc3F)oc2c1,·,4.1,-3.0,·,-7.9,·,-27.3,·
